# Vaccinia mCherry – inhibitors of vaccinia virus infection (mCherry reporter signal); Vaccinia virus mCherry reporter infection, fluorescence; about a quarter of the inactives have no number; Potency, µM (doses to about 36.5 µM), inactives show at the highest dose activity change, negative = inhibition, usual class: inhibitors; 310,000 tested, 0.63% active; AID 720579; active = well fitted inhibition curve with a large enough effect; inconclusive = small, poorly fitted or top-dose-only effect; inactive = no such curve, though single readings can be large or run the other way; tested in A549 cells; also: nearly all actives have a fitted effect of over 35% in size; inactives centre near -10
# Vaccinia Venus – vaccinia inhibition (Venus reporter); Vaccinia virus Venus reporter expression, fluorescence; Potency, µM (titrated, usually from 36.5 µM), for the others: top-dose activity change, negative = inhibition, hits mostly inhibitors; 330,000 tested, 0.46% active; AID 720580; active means well fitted inhibition curve with a large enough effect; inconclusive means small, poorly fitted or top-dose-only effect; inactive means no such curve, though single readings can be large or run the other way; tested in A549 cells; also: nearly all actives have a fitted effect of over 30% in size; inactives centre near -10
# * hit, by the source's call; i = inactive; ? = inconclusive; nt = not tested or not shown; & = joins results of further samples; [ ] = another dose, or the depositor's remark. % is scaled to controls: 0 for no effect and ±100 for the full control effect; potency is read from the fitted curve at half-maximal effect.
no. | smiles | Vaccinia mCherry | Vaccinia Venus
1 | O=C(CSc1ncnc2c1cnn2-c1ccccc1)Nc1ccccc1 | -4% | -3%
2 | C=C1C2CC[C@@]3(C)C(c4ccoc4)OC(=O)C[C@@]13OC1CC(=O)C(C)(C)C(C(O)C(=O)OC)[C@]12C (some centres undefined) | -13% | -5%
3 | COc1ccc(CC(=O)N2CCN(c3ccccc3)CC2)cc1OC | -13% | -16%
4 | O=C(NCc1ccco1)c1cc(S(=O)(=O)NC2CC2)ccc1Br | i | -15%
5 | CCOc1ccc(NC(=O)c2c(NCc3cccs3)sc3c2CCC(C)C3)cc1 (centres undefined) | -6% | -12%
6 | CC1(C)Cc2c(cnn2-c2ccccc2)C(NC(=O)c2ccoc2)C1 (centres undefined) | -9% | -12%
7 | COc1cccc(OCCOCC(O)CN2CCN(Cc3ccc(Cl)cc3)CC2)c1 (centres undefined) | -24% | -11%
8 | COC(=O)c1ccc(NC(=O)CN2CCCC2)cc1 | -14% | ?
9 | O=C(c1cnc2n(c1=O)CCS2)N1CCN(C(c2ccccc2)c2ccc(Cl)cc2)CC1 (centres undefined) | 19% | 10%
10 | CC(C)(C)C(=O)Nc1ccc(-c2nc3ccccc3s2)cc1 | -8% | -7%
11 | COc1cc(OC)c(OC)cc1CN1CCN(c2ccc(F)cc2)CC1 | -13% | -1%
12 | Cc1cc(C)c2nc(-c3ccccn3)cc(C(=O)NCc3cc(C)n(C)n3)c2c1 | i | -10%
13 | O=S(=O)([N-]c1nc2ccccc2nc1-n1cc[n+](Cc2ccccc2)c1)c1ccc(Br)cc1 | -9% | -11%
14 | Cc1ccc(C2NC(=O)c3c(sc4c3CCN(C)C4)N2)o1 (centres undefined) | -13% | 0%
15 | CCOC(=O)c1sc2nc(CSc3ccccc3)nc(N3CCC(C(N)=O)CC3)c2c1C | 11µM* | 10µM*
16 | COc1ccc(/C=C/C(=O)O)cc1S(=O)(=O)NCc1ccccc1 | -13% | 4%

# 2 compounds picked at random from those above:
no. | smiles | Vaccinia mCherry | Vaccinia Venus
12 | Cc1cc(C)c2nc(-c3ccccn3)cc(C(=O)NCc3cc(C)n(C)n3)c2c1 | i | -10%
10 | CC(C)(C)C(=O)Nc1ccc(-c2nc3ccccc3s2)cc1 | -8% | -7%

# Continuation.
no. | smiles | Vaccinia mCherry | Vaccinia Venus
17 | COc1ccc(N/C(N)=N/c2nc(CSc3ccc(C)cc3)cc(=O)[nH]2)cc1 | -10% | -10%
18 | CC1(C)CSC(C)(C)C(=O)N1 | -10% | -7%
19 | CCOc1ccc(C(=O)COC(=O)c2cccc(-n3cnnn3)c2)cc1 | -8% | -18%
20 | CCCN(CC(=O)Nc1ccccc1C)C(=O)c1ccc(S(=O)(=O)N2CCCCCC2)cc1 | 0% | -15%
21 | O=C(NCc1ccco1)C1Cc2c(-c3cccc(F)c3)ccnc2O1 (centres undefined) | ? | -23%
22 | CCC1CCCCN1C(=O)Cn1c(=O)n(-c2ccc(Cl)c(Cl)c2)c(=O)c2c(C)c(C(=O)N(C)C)sc21 (centres undefined) | -1% | -6%
23 | COc1ccc(CN2CC(=O)N(c3cc(Cl)ccc3C)C2=S)cc1OC | -7% | -5%
24 | Cc1ccccc1N(CC(=O)N/N=C/c1cc(Br)c(C)o1)S(C)(=O)=O | -16% | -9%
25 | O=C(Nc1ccc2c(c1)OCO2)c1n[nH]c(=O)c2ccccc12 | i[7.34 µM] | 0%[7.34 µM]
26 | CC1CCCC(NC(=O)COC(=O)[C@@H](NC(=O)c2ccccc2Cl)C(C)C)C1C (some centres undefined) | i | -25%
27 | CC(C)c1ccc(Nc2nnns2)cc1 | ? | ?
28 | CC1(C(=O)Nc2cccc(Oc3ccccc3)c2)Cc2c(-c3ccc4c(c3)OCO4)ccnc2O1 (centres undefined) | -5% | -26%
29 | O=C1CCc2cc(NS(=O)(=O)c3ccc(Cl)cc3)cc3c2N1CC3 | -14% | -14%
30 | CN(C)c1ccc(C=Cc2nccc3ccccc23)cc1 | 31%[activator] | 57%[activator]
31 | COCCNC(=O)c1cccc(OC2CCN(Cc3ccc(F)c(OC)c3)CC2)c1 | -1% | -9%
32 | COCCNC(=O)C1C(=O)Nc2ccccc2C(=O)N1c1ccc2c(c1)OCCO2 (centres undefined) | -11% | -19%
33 | Cn1c(=O)c2[nH]c(CCC3CCCC3)nc2n(C)c1=O | -12% | -20%
34 | CC1CCSP(=O)(Oc2ccccc2)O1 (centres undefined) | -29% | -28%
35 | C#CCOCCOCCOCCNc1nc(N2CCN(C(=O)[C@H]([C@@H](C)CC)n3cc([C@@H](N)CO)nn3)CC2)nc(N2CCN(C(=O)[C@H]([C@@H](C)CC)n3cc([C@@H](N)CC(C)C)nn3)CC2)n1 | i | 1%
36 | NNc1nnc2c3cc(F)ccc3n(CCc3ccccc3)c2n1 | ? | -2%
37 | COc1cc(/C=C/C(=O)OCC(=O)Nc2ccccc2Sc2ccc(Cl)cc2)ccc1O | i | -13%
38 | O=C(NCCNC(=O)Nc1ccc(Cl)cc1)Nc1ccc(Cl)cc1 | -10% | -12%
39 | COc1cc(OC)c(NC(=O)COCc2cc(-c3cccs3)on2)cc1Cl | -17% | -9%
40 | O=C(CN1CCN(C(=O)CN2C(=O)NC3(CCCC3)C2=O)CC1)Nc1cccc(F)c1 | -15% | -2%
41 | Cc1ccc(C2CCN(C(=O)Nc3ccccc3)C2)cc1 (centres undefined) | -6% | -24%
42 | NC(=O)CC(NC(=O)c1ccccc1)c1ccc(NC2CCCC2)c([N+](=O)[O-])c1 (centres undefined) | i | -26%
43 | CCOc1ccc(NC(=O)c2ccc3c(c2)N(C)CCS3)cc1 | -19% | -28%
44 | Cc1ccc2[nH]c(=O)c(CC=C(Cl)Cl)c(C)c2c1 | i | -13%
45 | Cc1c2cnn(-c3ccccc3)c(=O)c2c(C)n1CC(=O)Nc1ccccc1Br | -9% | -6%
46 | Cc1cc(NC(=O)c2ccccc2)cc(NC(=O)c2ccccc2)c1C | -3% | -9%
47 | CCOc1ccc(NC(=O)CCc2nnc3ccc(N4CCN(C)CC4)nn23)cc1 | -17% | -16%
48 | CCOC(=O)N/N=C\c1cccc(OC)c1 | -14% | -6%
49 | Cc1nn(-c2ccccc2)c(Cl)c1/C=N/NC(=O)CCNc1n[nH]c(=O)[nH]c1=O | i | 2%
50 | COC(=O)c1c(NC(=O)C2c3ccccc3Oc3ccccc32)sc2c1CCC(C)C2 (centres undefined) | -15% | -10%
51 | CCS(=O)(=O)C1=NSC2=NC(=O)/C(=C\c3ccc(OS(=O)(=O)c4ccccc4)cc3)C(=N)N21 | -11% | -9%
52 | COc1ccc(C2SC[C@@H](C(=O)O)N2C(C)=O)cc1 (some centres undefined) | nt | -4%
53 | O=S(=O)(Nc1cccnc1)c1cccnc1 | -15% | -13%
54 | COC(=O)c1ccc(OC(=O)CCN2C(=O)C3C4c5ccccc5C(c5ccccc54)C3C2=O)cc1 (centres undefined) | -3% | -8%
55 | COCCCNc1nc2ccccc2nc1NS(=O)(=O)c1ccccc1 | -3% | -1%
56 | Cc1ccc(NC(=O)CSCc2cnn(-c3ccccc3)c2-n2cccc2)c(C)c1 | -12% | -12%
57 | O=C1c2cccnc2C(=O)N1Cc1ccc(S(=O)(=O)NCc2ccco2)s1 | i | -23%
58 | CCc1nnc(NC(=O)CC(CN(C)S(=O)(=O)c2ccccc2)c2ccccc2)s1 (centres undefined) | i | -19%
59 | C=CCNC(=O)CC12CC3CC(C1)CC(CC(=O)NCC=C)(C3)C2 | -16% | -5%
60 | COCCOc1cc(NC(=O)c2ccccc2)c(Cl)cc1Cl | -6% | -8%
61 | COc1ccc(NC(=O)N[C@H]2C=C[C@@H](CC(=O)NC3CCC3)O[C@@H]2CO)cc1 | -2% | -3%
62 | Cc1nn(-c2ccccc2)c(OC(=O)c2ccc(Cl)cc2)c1S(=O)(=O)c1ccccc1 | -14% | 0%
63 | C#Cc1ccc([C@H]2C=C(C(=O)NC3CC3)O[C@@H](OCC)[C@@H]2CCCO)cc1 | i | -10%
64 | O=S(=O)(N/N=C\c1ccc(-c2ccccc2Cl)o1)c1ccccc1 | ? | -19%
65 | CCOc1cc(/C=N/NC(=O)c2ccc(=O)n(C)c2)ccc1O | -11% | -2%
66 | O=C(COC(=O)CCc1nc2ccccc2s1)Nc1ccc(S(=O)(=O)N2CCOCC2)cc1 | i | -11%
67 | COC(=O)c1cc(Br)c(=O)n(CCN(C(C)C)C(C)C)c1 | nt | 1%
68 | Cc1cc(C)n(S(=O)(=O)c2ccc(Cl)cc2)n1 | -9% | -12%
69 | CCCN(CCC)C(=O)c1ccc2c(c1)S(=O)(=O)c1ccccc1C2=O | ? | -9%
70 | Cc1ccc(NC(=O)C2CCN(S(=O)(=O)c3c(C)[nH]c(=O)[nH]c3=O)CC2)cc1 | -19% | -2%
71 | Nn1c(SCC(=O)NCC2CCCO2)nnc1-c1ccc(OC(F)F)cc1 (centres undefined) | i | -19%
72 | COc1ccc([C@@H]2CC=C(C(=O)O)[C@H](c3ccc(C)cc3)N2S(=O)(=O)c2ccccc2C)cc1 | i | -8%

# Next section:
no. | smiles | Vaccinia mCherry | Vaccinia Venus
73 | O=C(Nc1ccc([N+](=O)[O-])cn1)C1CC1 | -7% | -6%
74 | Cc1ccccc1N1CCN(CC(=O)Nc2nc(C)c(C(=O)N(C)C)s2)CC1 | -3% | -13%
75 | COc1ccccc1Nc1nnc(SCc2cc(=O)n3ccsc3n2)s1 | -19% | -25%
76 | CC(=O)Nc1ccc2oc(-c3ccccc3Br)nc2c1 | -21% | -16%
77 | C/C(=N\OC(=O)Nc1ccccc1)c1cnn(-c2cc(C(F)(F)F)cc(C)n2)c1C | -15% | 2%
78 | CCCCN(CCC(=O)O)c1ccc(/C=C/c2ccnc3ccccc23)cc1 | ? | -8%
79 | CCCCCCSc1ccc([C@@H]2[C@@H]3C(=O)N(C)C(=O)[C@@H]3[C@]3(C(=O)OC)CCCCN23)cc1 | i | -23%
80 | CCN1CCN(c2nc(N)c([N+](=O)[O-])c(Nc3ccc(C)cc3)n2)CC1 | -17% | -2%
81 | CCCCn1c(CNC(=O)CC)nc2ccccc21 | i | 3%
82 | Cc1ccc(S(=O)(=O)N2C[C@H]3n4c(=O)ccc(=O)n4C[C@H](OC(=O)NCc4ccco4)[C@@]3(O)C2)cc1 | -29% | -24%
83 | CN1CCN(C2=Nc3ccccc3Oc3ccc(Cl)cc32)CC1 | ? | -13%&-28%
84 | C=CCNC(=O)CSc1nnc(-c2ccccc2Br)n1-c1cccc(C(F)(F)F)c1 | -13% | -23%
85 | COc1ccc(CCNC(=O)c2cc(=O)c3c(C)cc(C)cc3o2)cc1OC | 11% | 5%
86 | CC(=O)Nc1cc(-c2ccc(C(=O)NC3CC3)cc2)cn2c(-c3cccc(C(F)(F)F)c3)cnc12 | ? | ?
87 | Cc1cc[n+](CC(=O)c2ccc(F)cc2)c2ccccc12 | -7% | -2%
88 | CCOC(=O)c1c(C)oc2nc(C)nc(Nc3ccc(C)c(Cl)c3)c12 | -12% | -11%
89 | c1ccc(-c2ccc(-c3ccccc3)[nH]2)cc1 | -9% | -6%
90 | CCOC(=O)C1CCN(Cc2cc(Cl)c3ccccc3c2O)CC1 | ? | 6%
91 | N#CCc1ccc(NC(=O)Nc2cccc(Cl)c2)cc1 | ? | ?
92 | N#Cc1ccc(OCC(O)CN2CCN(C(c3ccccc3)c3ccccc3)CC2)cc1 (centres undefined) | -24% | -11%
93 | COc1ccc(OC)c(-c2csc(NC(=O)CSc3ccccc3)n2)c1 | ? | -27%
94 | CC(=O)Nc1nnc(C2=COCCO2)o1 | 9% | 3%
95 | COc1cc(S(=O)(=O)NCc2ccccc2)ccc1Br | -26% | -6%
96 | OCCOCCn1c(C(CO)Nc2nc(-c3ccc(F)cc3)cs2)nc2ccccc21 (centres undefined) | -22% | -24%
97 | Cc1ccccc1CC1(CO)CCCN(Cc2cn[nH]c2-c2ccccc2)C1 (centres undefined) | i | -5%
98 | CCOc1ccc(S(=O)(=O)N2CCCC(C(=O)N3CCN(c4ccccc4)CC3)C2)cc1 (centres undefined) | -20% | -28%
99 | O=C1N=C2SCCN2/C1=C\c1ccccc1Cl | nt | -29%
100 | CNS(=O)(=O)c1cc(Br)ccc1S(=O)c1ccccc1C(=O)O (centres undefined) | 0% | 1%
101 | C#CCNC(=O)C1CCN(c2cc(C)nc(-c3ccccc3)n2)CC1 | -7% | -6%
102 | Cc1cc(C)c2c(n1)SCC(=O)N2CC(=O)Nc1cccc(C)c1C | ? | -29%
103 | Cc1cc(C)c2c(NC(=O)c3ccccc3Cl)c(C(=O)NCc3ccc(Cl)cc3)sc2n1 | -9% | ?
104 | c1ccc(-c2cc3c(nn2)CCc2nonc2-3)cc1 | nt | -11%
105 | COC(=O)c1ccc(Oc2ccc(C(F)(F)F)cn2)cc1 | i | -14%
106 | O/N=C1\CC/C(=N\O)c2nn(-c3ccccc3Cl)nc21 | -26% | -20%
107 | Cc1ccccc1Cn1cc(CCC(=O)NC(C)c2ccccc2)c2ccccc21 (centres undefined) | -18% | -11%
108 | CCOC(=O)CN1C(=O)C(=O)N(Cc2ccccc2F)C1=O | -2% | -19%
109 | O=C(CCSc1ccccc1)N1CCOCC1 | -17% | -8%
110 | COc1ccc(C(=O)NCCN2CCN(C(=O)c3ccc(OC)c(OC)c3)CC2)cc1OC | -12% | -4%
111 | CCOc1cc(C(=O)N(CC)CC(=O)Nc2c(F)cccc2F)ccc1OCC(=O)N1CCCCC1 | -9% | 2%

# Whole records as entered above.
# Listed for COc1ccc(NC(=O)N[C@H]2C=C[C@@H](CC(=O)NC3CCC3)O[C@@H]2CO)cc1 = Vaccinia mCherry: -2%; Vaccinia Venus: -3%
# Listed for Cc1ccc(C2NC(=O)c3c(sc4c3CCN(C)C4)N2)o1 (centres undefined) = Vaccinia mCherry: -13%; Vaccinia Venus: 0%

# Screening data: PubChem BioAssay, National Center for Advancing Translational Sciences (NCATS)
